# Screening results deposited in PubChem BioAssay by National Center for Advancing Translational Sciences (NCATS).
# GLA inh pH 4.5 = alpha-galactosidase A (human) inhibition, pH 4.5; activity change, negative = inhibition, % at 105 µM; 230,000 tested, under 10 active; P06280; purified enzyme, 4-MU-alpha-Gal fluorescence, pH 4.5; AID 1467; inconclusive = small, poorly fitted or top-dose-only inhibition, or a rising curve; inactive = flat fitted curve, though single readings scatter; no compound was filed as active;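 also: 0% = full activity with enzyme and -100% = basal without enzyme; dose as in the result columns while the protocol names 77 µM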
# Target sequence (P06280 whole entry, looked up): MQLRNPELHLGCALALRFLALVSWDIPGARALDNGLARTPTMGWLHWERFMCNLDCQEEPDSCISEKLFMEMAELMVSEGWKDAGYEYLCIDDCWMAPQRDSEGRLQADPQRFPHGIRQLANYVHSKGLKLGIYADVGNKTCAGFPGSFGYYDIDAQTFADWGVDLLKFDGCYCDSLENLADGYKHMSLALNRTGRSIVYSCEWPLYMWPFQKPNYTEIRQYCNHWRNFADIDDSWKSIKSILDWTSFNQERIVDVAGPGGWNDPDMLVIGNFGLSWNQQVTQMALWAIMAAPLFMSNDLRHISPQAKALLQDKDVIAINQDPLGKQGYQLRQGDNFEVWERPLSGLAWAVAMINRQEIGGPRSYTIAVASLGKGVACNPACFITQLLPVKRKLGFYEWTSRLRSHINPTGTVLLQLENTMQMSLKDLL
# Active calls of the source: *; & = joins results of further samples.
Structure	GLA inh pH 4.5
COc1ccc(-c2nc3c(c4c2C[C@H](c2ccccc2)OC4)CN(C(=O)C2CC2)CC3)c(C)c1	-7.0
Oc1c(CN2CCOCC2)cc2c(c1-c1c(O)c(CN3CCOCC3)cc3c1CCCC3)CCCC2	-16.1
O=[N+]([O-])c1ccc(CSc2ncnc3c2ncn3[C@@H]2O[C@H](CO)[C@H](O)[C@H]2O)cc1	1.0
COc1ccc(-c2c(O)c3c(OC)c4c(cc3oc2=O)OC(C)(C)CC4)cc1	-9.4
COc1ccc(CNC(=O)[C@H](C)[C@H]2C[C@]2(C)[C@H](NC(=O)OCc2ccccc2)c2ccccc2)cc1OC	1.7
C[N+]12CCC(CC1)[C@@H](OC(=O)C(O)(c1ccccc1)c1ccccc1)C2	-0.6
Cn1c(=O)c2c(ncn2C[C@@H](O)CO)n(C)c1=O	-2.5
CCc1c2c(nc3ccc(OC)cc13)COC2	-4.4
COc1cc2c(C)c3c4c(cc(OC)c(OC)c4c2cc1OC)CCN3C	-7.1
NC(=O)c1ncn(C2OC(CO)C(O)C2O)n1 (stereo not drawn)	5.0
CC(C)[C@@H](CC(=O)N[C@@H]1CCCC[C@H]1C(=O)N[C@H](CC(=O)N[C@@H](CCC(=O)O)CC(=O)O)Cc1ccccc1)NC(=O)C[C@H](CO)NC(=O)[C@@H]1CNCC[C@H]1N	-14.5
CCN(CC)CCCC(C)n1c(-c2ccccc2)nc2c(NCCO)nc(C)nc21 (stereo not drawn)	4.1
COC(=O)C1=C(C(=O)OC)[C@@H]2Nc3ccccc3[C@@]23C[C@@H](C(=O)OC)N(S(=O)(=O)c2ccc4c(c2)OCCN4C)C3=N1	-1.9
COC(=O)C1=C(C(=O)OC)[C@@H]2N(Cc3ccccc3)c3ccccc3[C@@]23C[C@@H](C(=O)OC)N(S(=O)(=O)c2ccc([N+](=O)[O-])cc2)C3=N1	2.0
Cc1csc(-c2nc3ccccc3n2C)n1	6.9
CC1(C)S[C@@H]2[C@H](NC(=O)[C@@H](N)c3ccc(O)cc3)C(=O)N2[C@H]1C(=O)O	-2.3
COc1ccc(C[C@@H]2c3cc(OC)c(OC)cc3CC[N@+]2(C)CCC(=O)OCCCCCOC(=O)CC[N@@+]2(C)CCc3cc(OC)c(OC)cc3[C@H]2Cc2ccc(OC)c(OC)c2)cc1OC	6.7
C/C(N[C@@H]1CSCC1O)=C1/C(=O)CC2[C@@H]1C2(C)C (stereo partly drawn)	-0.2
COc1cc2ncnc(Nc3cccc(Br)c3)c2cc1OC	-6.8
COc1c2c(c(C(=O)/C=C/C(C)=C/c3ccccc3)c3c1OCO3)CCN(C)C2	-13.1
COc1cc2c(Nc3ccc(NC(=O)c4ccccc4)cc3)ncnc2cc1OCCCN1CCOCC1	-12.8
CCCCCCCCCCCCCC(=O)N[C@@H](C)[C@H](O)c1ccccc1	8.4
CC1(C)OC2C[C@](O)(C(N)=O)C[C@H](O)[C@H]2O1 (stereo partly drawn)	5.9
CN(C)c1ccc(CNC(=O)[C@@]2(C)C=C[C@@H](Cc3ccccc3)N2C)cc1	-14.6
COc1ccc(C2Oc3cc(OC)cc(OC)c3CC2O)cc1 (stereo not drawn)	-5.5
COc1ccc(C2CC(=O)c3c(O)cc(OC4OC(COC5OC(C)C(O)C(O)C5O)C(O)C(O)C4O)cc3O2)cc1O (stereo not drawn)	2.7
C=CCSSSCC=C	25.4
C[C@@H]1O[C@@H](OC[C@H]2O[C@@H](Oc3c(-c4cccc(O)c4O)oc4cc(O)cc(O)c4c3=O)[C@H](O)[C@@H](O)[C@@H]2O)[C@H](O)[C@H](O)[C@H]1O	-15.7
COc1cccc([C@@H]2Oc3ccc(OC)cc3C[C@H]2OC(=O)Nc2cc(OC)c(OC)c(OC)c2)c1	-1.3
COc1c(N2C[C@@H]3CCCN[C@H]3C2)c(F)cc2c(=O)c(C(=O)O)cn(C3CC3)c12	1.8
CCCCC/C=C\C/C=C\C/C=C\C=C\C(O)CCCC(=O)O (stereo not drawn)	2.5
CC(=O)N[C@@H]1C(O)OC(CO)C(O)C1O (stereo partly drawn)	5.8
COC(=O)[C@@]1(Cc2ccc(OC)cc2)[C@H]2c3cc(C(=O)N4CCCC4)n(CCN4CCOCC4)c3C[C@H]2CN1C(=O)c1ccccc1	-5.8
CC(C)NC[C@H](O)c1ccc2ccccc2c1	-12.5&0.7
C=C[C@](C)(O)CCC1C(=C)CC(O)C2C(C)(C)CCCC12C (stereo partly drawn)	-11.6
N#Cc1cccc(CS(=O)(=O)c2nnnn2C2CCCCC2)c1	-6.4

# 4 compounds out of the list above, sorted by their value in GLA inh pH 4.5, ascending.
Structure	GLA inh pH 4.5
C[C@@H]1O[C@@H](OC[C@H]2O[C@@H](Oc3c(-c4cccc(O)c4O)oc4cc(O)cc(O)c4c3=O)[C@H](O)[C@@H](O)[C@@H]2O)[C@H](O)[C@H](O)[C@H]1O	-15.7
N#Cc1cccc(CS(=O)(=O)c2nnnn2C2CCCCC2)c1	-6.4
COc1c(N2C[C@@H]3CCCN[C@H]3C2)c(F)cc2c(=O)c(C(=O)O)cn(C3CC3)c12	1.8
COc1ccc(C2CC(=O)c3c(O)cc(OC4OC(COC5OC(C)C(O)C(O)C5O)C(O)C(O)C4O)cc3O2)cc1O (stereo not drawn)	2.7

# Further compounds follow:
Structure	GLA inh pH 4.5
C=C1C(=O)C=C2CN(C(=O)c3ccccc3)[C@@](Cc3ccc(OC)cc3)(C(=O)OC)[C@@H]12	-1.6
CCSC(N)=Nc1ccc(C(F)(F)F)cc1	-12.7
CC(=O)NC(CC(=O)O)C(=O)NC(CCC(=O)O)C(=O)O (stereo not drawn)	0.7
CC(C)COC[C@H](CN(Cc1ccccc1)c1ccccc1)N1CCCC1	-1.4
CCCC[C@@H]1C[C@H]1C(NC(=O)c1ccccc1)c1ccccc1 (stereo partly drawn)	-4.1
CC(=O)Nc1ccc(OC[C@@H](O)CNC(C)C)cc1	6.7&-0.9
Cc1cc(=O)c2c(O)c3c(O)cc(=O)c4c3c3c(cc(O)c1c23)C(C)(C)C=4O	-1.5
COc1ccc(CCCO[C@@H](Cn2ccnc2)c2ccc(OC)cc2)cc1	-16.5
COc1cc2oc(-c3ccccc3)cc(=O)c2cc1OC	4.4
COc1cc(OC)c2ccc(=O)oc2c1C(CCN1CCOCC1)c1ccc(N(C)C)cc1 (stereo not drawn)	-3.8
COC(=O)Cn1c(C(=O)N2CCCC2)cc2c1C[C@H]1CN(C(=O)c3ccccc3)[C@@](Cc3ccccc3)(C(=O)OC)[C@@H]21	0.2
COC(=O)[C@@H]1[C@@H]2C[C@H]3c4[nH]c5ccccc5c4CCN3C[C@@H]2CC[C@@H]1O	-17.2&-6.0&-4.3&4.9&4.7
CCCCC/C=C\C/C=C\C/C=C\C/C=C\CCCCCC(=O)NCCCC(=O)O	-8.6
CCN(CC)CCCN1C=C2C(=O)C(C)(OC(=O)c3cccs3)C(=O)C=C2C=C1CCCC(=O)OC (stereo not drawn)	3.2
COc1ccc2nccc(C(=O)O)c2c1	2.0
CC(=O)N1[C@H](Cc2ccccc2)C=C[C@]1(C)C(=O)NCc1cc(F)cc(C(F)(F)F)c1	-1.4
C[C@H]1Cc2c(-c3ccccc3)nc3c(c2CO1)CN(C(=O)NCCc1c[nH]c2ccccc12)CC3	2.1
COc1c(O)c(O)cc2c1oc1c3ccccc3oc(=O)c21	5.3
CC(=O)NCCc1c(Cc2ccccc2)[nH]c2ccccc12	0.7
Cc1cccc(-c2cc(=O)c3cc(C)ccc3o2)c1	-4.4
COCC(=O)C(C(=O)OC)[C@H](CCc1ccccc1)NC(=O)OC (stereo partly drawn)	-10.0
COc1ccc2c(c1)O[C@@H](c1cccc(C(F)(F)F)c1)[C@H](OC(=O)Nc1ccc(C)c(Br)c1)C2=O	-5.2
COc1ccc(C(OCCN2CCC[C@@H](C(=O)O)C2)(c2ccc(OC)cc2)c2ccc(OC)cc2)cc1	-4.1
CC(C)C[C@@H](CC(=O)N[C@@H](CCC(=O)O)CC(=O)O)NC(=O)[C@@H]1CNCC[C@H]1NC(=O)C[C@@H](NC(=O)C[C@H](Cc1ccccc1)NC(=O)[C@@H]1CNCC[C@H]1N)C(C)C	-8.6
C[n+]1ccccc1/C=N\O	-3.4
CCC/C=C(\CCC)C(NS(=O)(=O)c1cccc2cccnc12)c1ccc(-c2ccccc2)cc1 (stereo not drawn)	6.0
C=C(C)C(O)/C=C/c1ccc(Br)cc1 (stereo not drawn)	-9.6
O=C(Cc1ccccc1I)Nc1ccccc1	-4.6
C[C@@H](/C=C\c1cccc(Oc2ccc(F)cc2)c1)N(O)C(N)=O	-19.3
COC(=O)[C@@]1(Cc2ccccc2)[C@H]2c3cc(C(=O)N4CCCC4)n(Cc4ccc(C(F)(F)F)nc4)c3C[C@H]2CN1C(=O)c1ccccc1	-1.5
CN1CCC[C@@H](CC2c3ccccc3Sc3ccccc32)C1	-9.2
CN(C)C(=O)[C@]1(C)C[C@H]1[C@H](NC(=O)CNC(=O)[C@@H]1CCCN1C(=O)[C@]1(C)C[C@H]1[C@H](NC(=O)OCc1ccccc1)c1ccccc1)c1ccccc1	-18.2
COC(=O)N[C@H](c1ccccc1)C(C(C)=O)C(=O)OC (stereo partly drawn)	-2.4
CC(=O)OC/C=C(C)/C=C/C=C(C)/C=C/C1=C(C)CCCC1(C)C	-27.6&1.2
COC(=O)CCC(=O)OC1(C)C(=O)C=C2C=C(C3CC3)N(c3ccc(OC)cc3)C=C2C1=O (stereo not drawn)	7.7
Cc1cccc(CNc2nc(-c3ccccc3CN(C)C)nc3ccccc23)c1	-3.5
CC(=O)N[C@@H](C(=O)O)C(C)(C)SN=O	-6.5
C[N+](C)(CCCCCC[N+](C)(C)CCCN1C(=O)c2ccccc2C1=O)CCCN1C(=O)c2ccccc2C1=O	-8.4
C[C@H]1CC[C@]2(OC1)O[C@@H]1C[C@@H]3[C@@H]4CC[C@H]5C[C@@H](O)CC[C@]5(C)[C@@H]4CC(=O)[C@@]3(C)[C@H]1[C@@H]2C	1.9
COc1cccc(-c2cc(=O)c3cc(O)ccc3o2)c1	-6.7
N#CC(C#N)=C(N)/C(C#N)=C/c1ccc(O)cc1	-2.8
CO[C@H]1[C@@H](OC(N)=O)[C@H](O)[C@@H](Oc2ccc3c(O)c(NC(=O)c4ccc(O)c(CC=C(C)C)c4)c(=O)oc3c2C)OC1(C)C	6.1
C[C@H](NC(=O)N1CCc2nc(-c3ccccc3)c3c(c2C1)CO[C@@H](C)C3)c1ccccc1	-8.6
CCCCC/C=C\C\C=C/C=C/C=C/[C@@H](SCC(NC(C)=O)C(=O)O)[C@@H](O)CCCC(=O)O (stereo partly drawn)	-6.9
COc1ccc(-c2oc3ccc(C)cc3c(=O)c2O)cc1OC	-6.0
CCOC(=O)c1c(N)sc2c1CCN(Cc1ccccc1)C2	-9.6
NC(CCCP(=O)(O)O)C(=O)O (stereo not drawn)	0.2
C(=C\c1nc(-c2ccccc2)oc1Nc1ccc2ccccc2c1)/c1ccccc1	-11.7
C=CC(C1=CC(=O)C(OC)=CC1=O)c1ccccc1 (stereo not drawn)	-5.5
COC(=O)N1[C@H]2CC[C@@]3(C)CC(=O)C[C@]1(C)C3c1ccccc12	-7.1
CC(=O)C1=C(C)N(Cc2ccco2)C(=O)N[C@@H]1c1ccccc1	0.1
COC(=O)c1nnc(C(=O)NCc2ccccc2)c2[nH]c3ccc(OC)cc3c12	-2.6
CC[C@@]1(O)C(=O)COc2c1cc1n(c2=O)Cc2c-1nc1cccc(C(C)C)c1c2[Si](C)(C)C	11.3
CCCCC/C=C\C[C@@H](O)/C=C/C=C\CCC(=O)O	-8.7
COCCNc1nc(C)nc2c1nc(-c1ccccc1)n2CCN1CCCCC1	-14.1
OC1C=C2CCN3Cc4cc5c(cc4C(C1O)C23)OCO5 (stereo not drawn)	-7.3
COC(=O)[C@@]1(Cc2ccc(F)cc2)[C@H]2c3cc(C(=O)N(C)C)n(CCN4CCOCC4)c3C[C@H]2CN1C(=O)c1ccccc1	3.4
C[C@H](Cc1ccc(O)c(O)c1)[C@@H](C)Cc1ccc(O)c(O)c1	-2.0
c1ccc2nc3ccccc3cc2c1	14.4
CCCCC/C=C\C/C=C\C/C=C\CC1OC1CCCC(=O)O (stereo not drawn)	0.8

# Continuation.
Structure	GLA inh pH 4.5
COc1ccccc1-c1cc(NCc2cccnc2)ncn1	-7.2
COC(=O)[C@@H]1C[C@@H]2CC[C@@H](O)C[C@@H]2N1Cc1ccc(C)s1	3.0
CC(C)C[C@@H](CC(=O)N[C@@H](CCC(=O)O)CC(=O)O)NC(=O)[C@@H]1CCCC[C@H]1NC(=O)C[C@H](CCCN)NC(=O)C[C@H](Cc1ccccc1)NC(=O)[C@@H]1CCCC[C@H]1N	1.0
O=C(/C=C/c1ccc(O)cc1)c1cccs1	-8.3
O=c1c(O)cc(C2Oc3cc(O)cc(O)c3CC2O)cc2c(C3Oc4cc(O)cc(O)c4CC3O)cc(O)c(O)c12 (stereo not drawn)	0.7
Cc1ccc2[nH]c(C)cc(=O)c2c1	-7.2
CC1(OC(=O)C2CCCC2)C(=O)C=C2C=C(C3CC3)OC=C2C1=O (stereo not drawn)	-3.4
O=S(=O)(Cc1ccccc1)c1nnnn1C1CCCCC1	-11.0
CC(=O)OC[C@@]1(O)C[C@]23CCC4c5ccoc5CC[C@@]4(C)C2CCC1C3 (stereo partly drawn)	6.2
Cc1ccccc1Nc1oc(-c2ccccc2)nc1CCc1ccccc1	-2.3
CCN(CC)CC#CCOC(=O)[C@@](O)(c1ccccc1)C1CCCCC1	-6.2
CC(CCC(=O)O)C1CCC2C3C(=O)CC4CC(=O)CC[C@@]4(C)C3CC(=O)[C@]12C (stereo partly drawn)	-0.4
COc1ccc2c(c1)C(=O)[C@@H](OC(=O)Nc1cc(OC)c(OC)c(OC)c1)[C@H](c1ccc(OC)c(Br)c1)O2	-3.3
CCCCC/C=C\C/C=C\C/C=C\CCCCCCC(=O)NCCCC(=O)O	-2.6

# Only part of the results is shown; rates above refer to the full screens.
